PINK1 modulator = changes PINK1 expression; PINK1 immunofluorescence, high-content cytometry, 24 h; Potency, µM (top dose mostly 76.6 µM), inactives show top-dose activation (PINK1 increase), usual class: activators; 410,000 tested, 0.2% active; AID 624263; active = well fitted activation curve with a large enough effect; inconclusive = small, poorly fitted or top-dose-only effect; inactive = flat fitted curve, though single readings scatter; cell line not stated here;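 also: potency is read from the fitted curve at half-maximal effect; % of control where 0% means no effect; nearly all actives have a fitted effect of over 65% in size; a mitochondrial uncoupler was the plate control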
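Readout is PINK1 immunofluorescence, quantified alongside mitochondrial, cell and nuclear markers by laser-scanning microplate cytometry. Cells from a stable line were exposed to compound titrations (5 concentrations) for 24 hours, with CCCP controls.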
Menin-MLL FL inh = menin-MLL binding inhibition, fluorescein peptide | Fluorescence polarization, fluorescein-MLL peptide displacement from menin | FP activity change, % at 61.4 µM | 290,000 tested, under 10 active | AID 1766; inconclusive = falling polarisation curve, or a change in total fluorescence; inactive = total fluorescence flat and polarisation flat or rising; no compound was filed as active; the % refers to the polarisation; negative = inhibition;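 also: % of control where 0% means no effect; inhibitors lower the polarisation; unlabelled MLL peptide was the positive control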
ClpP mod = qHTS Assay for Activators of ClpP | 340,000 tested, 1.9% active | AID 651965, 2013 | ATP-dependent Clp protease proteolytic subunit (Bacillus subtilis (strain 168)), P80244 | Potency, µM (series often up to 57.5 µM), for inactives: top-dose activity change, negative = active | purified B. subtilis ClpP, FRET peptide cleavage, 20 min; active = well fitted falling curve with a large enough effect; inconclusive = small, poorly fitted or top-dose-only effect; inactive = no such curve, though single readings can be large or run the other way; also: potency is read from the fitted curve at half-maximal effect; the source files actives as falling curves though it sought activators and does not explain the sign; nearly all actives have a fitted effect of over 65% in size; many hits overshoot -100%
Target sequence (P80244 whole entry, looked up): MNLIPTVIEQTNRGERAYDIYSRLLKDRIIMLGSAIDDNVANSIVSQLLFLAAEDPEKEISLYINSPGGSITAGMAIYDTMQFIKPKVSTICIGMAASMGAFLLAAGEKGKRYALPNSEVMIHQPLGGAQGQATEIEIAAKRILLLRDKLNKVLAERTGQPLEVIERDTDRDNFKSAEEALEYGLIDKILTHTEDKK
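Buffer: 100 mM Tris/HCl pH8, 100 mM KCl, 0.05% low protease BSA, 2.5% glycerol, 0.01% Tween-20. ClpP 10 microg/mL final; 20 min RT; delta FRET normalized to ADEP and DMSO controls.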
gsp antag = antagonists of gsp mutant (McCune-Albright syndrome) | gsp-mutant cells, cAMP HTRF, 30 min; control for the full effect not named in the record | Potency, µM (titrated, usually from 76.9 µM), for the others: top-dose activity change, negative = inhibition, usual class: inhibitors | AID 624288 | 340,000 tested, 0.4% active; active = falling curve of any shape with a large fitted effect; inconclusive = falling curve, mostly with a smaller effect; inactive = flat or rising curve; cell line not stated here;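 also: intracellular cAMP measured with PDE inhibitor Ro 20-1724 present during compound exposure; potency is read from the fitted curve at half-maximal effect; % is scaled to controls: 0 for no effect and ±100 for the full control effect; nearly all actives have a fitted effect of over 65% in size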
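G418-selected cells were plated in DMEM/10% FBS for 16-24 h at 37C, then treated with compounds plus the PDE inhibitor […] (300 uM solution added) for 30 min at 37C. Intracellular cAMP was measured by HTRF after 30 min lysis at room temperature.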
D2 ag = human D2 receptor agonism in beta-arrestin assay | DiscoveRx PathHunter D2 beta-arrestin, luminescence, 90 min; 100% = 57 uM dopamine signal | activation, % (concentration not given with the values) | 360,000 tested, 0.084% active | AID 624465; in the data active = activation above about 40%; inconclusive = about 15% to 40%; inactive = below about 15%; also: compound concentration not given in the record; the text of the record calls up to 30% inactive
Target sequence (P14416 whole entry, looked up): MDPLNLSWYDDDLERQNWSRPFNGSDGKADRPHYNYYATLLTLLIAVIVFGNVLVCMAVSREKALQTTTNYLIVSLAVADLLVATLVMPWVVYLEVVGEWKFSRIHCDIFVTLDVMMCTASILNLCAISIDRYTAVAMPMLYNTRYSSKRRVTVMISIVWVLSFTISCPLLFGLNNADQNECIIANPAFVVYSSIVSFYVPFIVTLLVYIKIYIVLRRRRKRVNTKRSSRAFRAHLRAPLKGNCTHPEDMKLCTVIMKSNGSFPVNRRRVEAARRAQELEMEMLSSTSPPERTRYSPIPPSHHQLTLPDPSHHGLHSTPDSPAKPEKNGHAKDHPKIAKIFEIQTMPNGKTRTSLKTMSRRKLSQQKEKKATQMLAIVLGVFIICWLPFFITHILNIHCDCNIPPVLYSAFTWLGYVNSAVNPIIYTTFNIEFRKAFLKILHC
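Agonist mode: compounds alone added to overnight-plated D2 PathHunter cells for 90 min at 37 C, with 57 uM final dopamine (EC100) defining full response. Beta-arrestin recruitment detected by chemiluminescent reagent, read after 1 h at ambient temperature.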
gsp ag = agonists of gsp mutant (McCune-Albright syndrome). gsp mutant cells, cAMP HTRF, 30 min; control for the full effect not named in the record. Potency, µM (series often up to 76.9 µM), for inactives: at the top dose activation (cAMP increase), usual class: activators. 340,000 tested, 0.13% active. AID 624287; active = well fitted activation curve with a large enough effect; inconclusive = small, poorly fitted or top-dose-only effect, or another doubt; inactive = no such curve, though single readings can be large or run the other way; cell line not stated here;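 also: phosphodiesterase inhibitor Ro 20-1724 added with compounds to block cAMP breakdown; potency is read from the fitted curve at half-maximal effect; nearly all actives have a fitted effect of over 60% in size; about a fifth of the inactives were tested at one dose only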
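Cells stably selected in G418 were plated at 2000/well, grown 16-24 hr, then given compounds in DMSO with the PDE inhibitor […] (300 uM solution added) for 30 min at 37C; cAMP was read by HTRF.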
Sfp PPTase inh = inhibitors of Bacillus subtilis Sfp phosphopantetheinyl transferase; Biochemical Sfp PPTase activity, qHTS; Potency, µM, for inactives: max response, negative = inhibition, hits mostly inhibitors; 310,000 tested, 3.5% active; AID 1490; active = well fitted inhibition curve with a large enough effect; inconclusive = small, poorly fitted or top-dose-only effect, or another doubt; inactive = no such curve, though single readings can be large or run the other way;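 also: the enzyme is Sfp with the accession as filed and its product quenches rhodamine fluorescence; potency is read from the fitted curve at half-maximal effect; 0% = enzyme reaction without inhibitor and -100% = no enzyme wells; top concentration of the series not given in the record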
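Sfp 15 nM + cpd, 15 min RT; start w/ rhodamine-CoA 5 uM, BHQ-2-YbbR 12.5 uM (final); 50 mM Hepes pH 7.6, 10 mM MgCl2, 0.01% NP-40, 0.01% BSA; read 525/598 nm at 0 and 30 min.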
Starred values were filed as active, the others as inactive; ? = inconclusive; / = no result given; & = joins results of further samples; [ ] = remark or other dose.

Results follow in this order: gsp antag | Sfp PPTase inh | D2 ag | PINK1 modulator | gsp ag | Menin-MLL FL inh | ClpP mod
O=C(N/N=C/c1ccc(O)cc1)c1cc[n+](Cc2ccccc2)cc1
→ 11% | 0% | 0.6 | 1.5% | -16%[15.4 µM] | -1.9 | 0.6%
CC(C)(C)c1ccc(S(=O)(=O)NCc2ccc(C(=O)NCC3CCCO3)cc2)cc1 (configuration not stated)
→ -4% | 11% | -2.4 | 1.9% | -40%[inhibitor] | / | -1.2%
C[C@@H](O)C(C(=O)N1CCNCC1)n1cc([C@@H](N)CCCCN)nn1 (some centres not stated)
→ 11% | / | -0.5 | 1.8% | / | / | 2.6%
COc1ccc(CN2CCC(n3nccc3NC(=O)c3cccc(F)c3)CC2)cc1O
→ 1% | 9% | -3.1 | 0.1% | -44%[inhibitor] | 1.8 | 7.6%
Cc1cc(=O)c2ccccc2[nH]1
→ 7% | 11% | -2.0 | 0.8% | -11% | 4.0 | -8.5%
COc1cccc(C(=O)N2CCN(Cc3ccccc3[N+](=O)[O-])CC2)c1
→ 5% | -9% | -4.0 | 2.1% | 8% | 7.0 | -4.8%
O=C1CN(C(=O)NCC(=O)N2CCCC2)c2ccccc2N1
→ 8% | 1% | 6.4 | 0.7% | -52%[inhibitor] | / | 4.0%
CCc1ccc2c(c1)[C@]1(C(=O)N2)[C@@H]2C(=O)N(Cc3ccccc3)C(=O)[C@@H]2[C@@H]2CCCN21
→ -3% | -7% | -1.0 | -0.4% | 8% | 7.3 | -7.3%
CSc1cccc(NC(=O)c2ccccc2N(C)S(C)(=O)=O)c1
→ -5% | 0% | 0.0 | 1.3% | -3% | 2.4 | -1.3%
CCOC(=O)c1cn(Cc2ccccc2)nn1
→ 2% | -6% | 0.5 | -2.2% | 13%[15.4 µM] | -3.1 | 0.4%
C/C(=N/NC(=O)c1ccc(NC(=O)c2ccc(F)cc2)cc1)c1ccccc1
→ 1% | 26% | -0.6 | 7.3% | 5% | 2.9 | -0.5%
CC1CCN(c2nc(-c3ccncc3)nc3ccccc23)CC1
→ ? | -6% | 0.6 | 0.1% | -10% | 1.6 | -7.7%
Cn1cc(NC(=O)Nc2ccc(C(F)(F)F)cc2)c(C(F)(F)F)n1
→ -8% | 7% | 4.1 | 6.9% | 14%[15.4 µM] | -1.1 | /
O=C1NCCN(Cc2cccc(Oc3ccccc3)c2)C1CC(=O)N1CCCO1 (configuration not stated)
→ 4% | 16% | -1.0 | 0.0% | -11% | -1.0 | /
Oc1cccc(C=NNc2ccccn2)c1
→ 9% | / | -0.6 | -2.0% | -24% | / | 1.2%
CC(C)(C)c1cc(-c2ccco2)c(C#N)c(SCC#N)n1
→ -11% | 36% | -1.4 | 4.2% | ? | -1.3 | -14%
CCCC1(C(=O)O)NC(c2cccc(OC)c2O)C2C(=O)N(c3ccccc3)C(=O)C21 (configuration not stated)
→ 2% | ? | -4.8 | 1.1% | 2% | -1.3 | -0.5%
CC(O)(c1cccc(F)c1)c1nc(-c2cncnc2)cs1 (configuration not stated)
→ / | / | -1.8 | 0.2% | / | / | -0.6%
O=C(CNCC1CCCO1)Nc1ccccc1-n1cccc1 (configuration not stated)
→ 4% | -25% | 0.1 | 0.0%[38.3 µM] | -38%[inhibitor] | 2.9 | -1.6%
COc1ccc(-n2nc(C(=O)NCC(=O)N3CCCCCC3)c3ccccc3c2=O)cc1Cl
→ -15% | 25% | -4.7 | -2.0% | -35%[inhibitor] | 2.6 | /
Cc1cc(C)n(-c2ccc(C(=O)Nc3ccccc3N3CCOCC3)cc2)n1
→ -10% | 10% | -1.9 | 5.4%[38.3 µM] | 7% | 4.1 | 0.7%
Nc1ccn([C@@H]2O[C@H](C(=O)N3CCCN(Cc4cccs4)CC3)[C@@H](O)[C@H]2O)c(=O)n1
→ / | / | -1.6 | 1.4% | / | / | -0.8%
O=[N+]([O-])c1ccccc1CCc1ccccc1[N+](=O)[O-]
→ 5% | / | 4.9 | -2.6% | -8% | / | /
COc1ccccc1C(=O)Nc1ccc2c(c1)n(C)c(=O)n2C
→ -13% | 13% | -2.3 | 1.9% | 0% | 0.8 | -1.0%
CN1C2CCC1/C(=C\c1ccccc1)C(=O)/C2=C\c1ccccc1
→ -9% | 14% | -4.4 | -1.9% | 0% | 3.0 | -1.2%
CC1CCN(CC(=O)Nc2sc3c(c2C#N)CCC3)CC1
→ ? | 3% | -0.4 | 1.7% | 0% | 0.0 | -13%
N#C/C(=C\c1cn[nH]c1-c1ccc(Cl)cc1)C(=O)NCc1ccccc1
→ 2% | 9% | -2.2 | -2.0% | -3%[15.4 µM] | 1.8 | 1.3%
CC(O)c1nc2ccccc2n1CCOc1ccccc1 (configuration not stated)
→ 24% | 5% | -2.8 | -1.5% | 1% | 4.3 | 1.0%
Cc1ccc(-c2cc3nc(C)cc(NCc4ccco4)n3n2)cc1
→ -11% | ? | 1.7 | 17%[38.3 µM] | -3% | 0.7 | 28µM*
COc1cc(C(=O)ON=C2C3CC4CC(C3)CC2C4)cc(OC)c1OC
→ -2% | 7% | 45* | -3.0% | ? | 0.1 | 1.8%
Cc1nn(C)c(C)c1NS(=O)(=O)c1c(C)n[nH]c1C
→ 13% | / | 2.3 | 0.2% | -26% | / | /
CCCn1c(SCC(=O)NNC(=O)c2ccc(OC)cc2)nnc1C(C)C
→ 5% | -16% | -5.1 | 5.7% | 0%[15.4 µM] | -5.3 | -2.1%
CSc1ccccc1OCc1cc(C(=O)N(C)CCc2c(C)n[nH]c2C)no1
→ -2% | 0% | 4.0 | 2.5% | 9% | / | -2.3%
O=C(OCCNc1nc(-c2ccccc2)nc2ccccc12)c1ccncc1
→ -22% | 17% | -3.0 | 5.7% | -41%[inhibitor] | -2.7 | -3.5%
CC1(C(=O)NNC(=O)c2ccc(=O)oc2)CC1Br (configuration not stated)
→ 5% | 19% | -2.6 | -0.9% | -2%[15.4 µM] | ? | /
Cc1ccc(C(=O)NNC(=O)c2csc(N3CCOCC3)n2)o1
→ 10% | / | -2.8 | -3.2% | 12% | / | -1.8%
Cc1ccc(NC(=O)CNCC(c2ccccc2)N(C)C)cc1F (configuration not stated)
→ 6% | ? | -7.6 | -0.7% | ? | -0.7 | -2.6%
O=C(Nc1nncs1)c1ccc2c(c1)OCO2
→ -5% | 21% | -3.6 | -1.8% | -5% | -0.1 | /
COc1cccc(N2CCN(S(=O)(=O)c3c(C)[nH]c(C)c3C(=O)N3CCCC3)CC2)c1
→ 5% | 9% | -2.8 | 0.1% | 3% | 4.5 | 1.6%
CCCCn1c(N)c(N(CCC(C)C)C(=O)CC2OC(=O)c3ccccc32)c(=O)[nH]c1=O (configuration not stated)
→ 13% | / | -3.2 | 5.9% | -21% | / | -3.3%
CC12CC3(C)CC(C)(C1)CC(C(=O)NCc1ccccn1)(C2)C3
→ 14% | 7% | -1.0 | 5.0% | -1% | -0.4 | 1.4%
CC1=C(C(=O)OCc2ccccc2)C(c2cccnc2)c2c(n(C)c(=O)n(C)c2=O)N1 (configuration not stated)
→ 2%&-4% | 9% | -1.0&-0.6 | 2.9% | 30%&-3% | 3.2 | ?
Cc1ccc2sc(N(CCCN(C)C)C(=O)c3ccc(S(=O)(=O)N4CCCCCC4)cc3)nc2c1C
→ 7% | / | -3.8 | -1.8% | -2%[15.4 µM] | / | /
O=C(Nc1ccc2ccccc2n1)C1CCCCC1
→ -1% | 14% | 0.9 | 3.1% | -29% | 0.9 | /
COCCNc1ncnc2ccc(-c3ccc(N(C)C)cc3)cc12
→ / | -28% | / | 3.4% | / | 11 | /
COC(=O)COc1cc(Cl)c(C=O)cc1OC
→ -8% | 17% | 9.5 | -1.9% | 12% | -0.1 | -26%
N#CCCN(C(=O)CN1CCN(S(=O)(=O)c2ccc(Cl)s2)CC1)c1ccc(F)cc1
→ 8% | / | -2.4 | -0.6% | -5%[15.4 µM] | / | 0.1%
CCOC(=O)c1cnc(SC)nc1Oc1cccc(NC(=O)c2ccc(Cl)cc2)c1
→ 8% | 4% | -3.2 | -1.0% | 10% | 3.2 | -1.5%
COc1cccc(CNC(=O)C2CCN(S(=O)(=O)c3ccc4c(c3)NC(=O)CO4)CC2)c1
→ -12% | 6% | 5.2 | 0.4% | -3% | -7.8 | -1.8%
Cc1cc(C)c(S(=O)(=O)Nc2cccc3nsnc23)c(C)c1
→ -7% | -4% | -2.1 | 2.8% | 11% | ? | -0.6%
COc1ccc(-c2nc(C(=O)NCC3CCCO3)cc3c2[nH]c2ccccc23)cc1 (configuration not stated)
→ 28µM* | -15% | 5.7 | 2.0% | / | 0.1 | 5.2%
O=C(N[C@@H]1C/C=C\C[C@@H](CC(=O)N(CCO)Cc2ccccc2)C(=O)N[C@H](Cc2ccccc2)COC1=O)OCC1c2ccccc2-c2ccccc21
→ -10% | / | -4.8 | 2.9% | / | / | -5.6%
CCn1c(=O)c(=O)n(CC)c2cc(S(=O)(=O)Nc3cccc(OC)c3)ccc21
→ -7% | 2% | -1.3 | -2.5%[38.3 µM] | -7% | 3.0 | -2.4%
Cc1ccc(C(=O)CCNc2ccc(Br)cc2)o1
→ 4% | 16% | -6.2 | 0.0% | ? | -9.3 | 1.0%

Looked up above:
Sfp PPTase inh with COCCNc1ncnc2ccc(-c3ccc(N(C)C)cc3)cc12 = -28%
PINK1 modulator with O=C(Nc1ccc2ccccc2n1)C1CCCCC1 = 3.1%
ClpP mod with COc1ccccc1C(=O)Nc1ccc2c(c1)n(C)c(=O)n2C = -1.0%

Source: PubChem
